Screening data as filed in PubChem BioAssay.
Calb FLC = affects C. albicans growth with fluconazole; C. albicans CaCi-2 (fluconazole-resistant clinical isolate) + fluconazole, Alamar Blue growth, 48 h; growth inhibition, % (no concentration beside the values); 300,000 compounds, 0.57% hits;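 active = most replicates above 75%; inconclusive = exactly half above 75%; inactive = most below 75%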;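 note: all wells also contain fluconazole at 8 µg/ml as a sub-toxic cotreatment; 0% = median of DMSO wells and 100% = median of geldanamycin control wells; wells of about 8 µL received 7.5 nL stock; the first replicate is given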
rRNA inh HTS = inhibits bacterial ribosomal RNA function over humanized ribosomes. GFP signal change (wild-type ribosome), % (test concentration not listed). AID 720706. E. coli WT GFP vs humanized-ribosome RFP mutants, fluorescence, 24 h; active compounds read low; DMSO median 0, no signal -100. 350,000 compounds, 1.6% hits;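 active = significant combined selectivity score with lowered wild-type GFP, culture density cut under 30%, mutant RFP and density less affected; inactive = any of these conditions unmet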; note: one replicate is shown; some compounds called inactive have numbers as strong as hits
RanGTP-Imp inh = inhibitors of RanGTP-importin-beta interaction, primary screen, biochemical, FRET, CFP-Ran, YFP-importin-beta, homogeneous | cell-free CFP-Ran/YFP-importin-beta FRET ratio | inhibition, % (test concentration not listed) | 300,000 compounds, 1.1% hits | AID 2216;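 active = most replicates above 15%; inconclusive = exactly half above 15%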;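 note: 0% = DMSO wells and 100% = Ran loaded with GDP instead of GTP; wells of about 40 µL received 100 nL stock; the first replicate is given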
ALR inh = human ALR oxidase inhibition via reduced H2O2. 290,000 compounds, 3.8% hits. AID 485317. inhibition, % (no concentration beside the values). P55789. purified ALR, DTT oxidation, H2O2 HRP-luminol luminescence;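 active = mean and each replicate at 75% or more; inconclusive = only one of the two met; inactive = neither met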;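 note: stock transfer was 7.5 nL into about 7.5 µL; 0% = neutral wells and 100% = wells with inactivated enzyme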
Target sequence (P55789 whole entry, looked up): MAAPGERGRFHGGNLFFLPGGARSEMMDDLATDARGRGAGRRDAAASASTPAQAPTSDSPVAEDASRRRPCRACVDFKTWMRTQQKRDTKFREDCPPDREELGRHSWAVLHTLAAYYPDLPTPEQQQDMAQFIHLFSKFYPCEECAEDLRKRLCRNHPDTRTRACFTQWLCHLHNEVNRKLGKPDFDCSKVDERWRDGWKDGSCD
MLL AF4-AF9 inh = blocks AF4 peptide binding to human AF9 | AlphaScreen, biotin-AF4 peptide binding to FLAG-AF9 | inhibition, % at 10 µM | 350,000 compounds, 0.47% hits;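 active = every replicate reaching a set inhibition limit, whatever the replicate mean, cut at about 25% in these data; inconclusive = mean inhibition reaches that limit but some replicates miss it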;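 note: 0% = plate neutral control median and 100% = total signal loss; the record names both 10 and 1 µM as test concentration; the first replicate is given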
Target sequence (P42568 whole entry, looked up): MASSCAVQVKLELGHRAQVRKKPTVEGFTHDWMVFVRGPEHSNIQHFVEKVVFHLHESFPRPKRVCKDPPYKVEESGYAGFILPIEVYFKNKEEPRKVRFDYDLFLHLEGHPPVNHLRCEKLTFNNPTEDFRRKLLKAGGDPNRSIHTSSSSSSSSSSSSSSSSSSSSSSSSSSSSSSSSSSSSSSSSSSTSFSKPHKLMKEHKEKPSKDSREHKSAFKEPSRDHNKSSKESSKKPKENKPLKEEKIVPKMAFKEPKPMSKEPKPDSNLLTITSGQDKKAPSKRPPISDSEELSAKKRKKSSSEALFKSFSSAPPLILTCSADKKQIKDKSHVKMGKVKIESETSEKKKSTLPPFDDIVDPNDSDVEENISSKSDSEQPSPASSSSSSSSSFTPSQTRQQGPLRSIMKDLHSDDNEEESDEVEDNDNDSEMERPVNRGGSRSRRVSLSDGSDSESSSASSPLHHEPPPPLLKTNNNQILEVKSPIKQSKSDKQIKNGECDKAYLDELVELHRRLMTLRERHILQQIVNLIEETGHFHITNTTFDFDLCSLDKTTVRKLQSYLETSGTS
FGF22 binding = FGF22 (human) thermal shift binding; calls only at 9.99 µM; 340,000 compounds, 1.5% hits; recombinant FGF22 thermal shift, SYPRO orange fluorescence; percent of sucrose octasulfate shift, DMSO zero;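 active = melting point raised past a set limit in the mean and every replicate; inconclusive = no clear call; three in four hits are not shown here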
Target sequence (Q9HCT0 whole entry, looked up): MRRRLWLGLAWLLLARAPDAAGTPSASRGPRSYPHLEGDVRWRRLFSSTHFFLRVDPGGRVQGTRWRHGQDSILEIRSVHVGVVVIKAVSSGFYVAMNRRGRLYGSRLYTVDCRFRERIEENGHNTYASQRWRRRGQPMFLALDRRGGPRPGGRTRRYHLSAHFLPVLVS
Beta cell apopt = beta cell apoptosis inhibition; INS-1E cytokine-induced death, ATP luminescence, 48 h; percent of positive-control rescue, neutral wells zero; protection from apoptosis, % (concentration not given with the values); 300,000 compounds, 0.8% hits; AID 435005;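 active = all replicates at 75% or more, or half of them and the mean; inconclusive = half reach 75% but not the mean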;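 note: 0% = cytokine-treated negative control wells and 100% = positive control rescue; higher means more ATP so stronger rescue from cytokine killing; wells of about 40 µL received 100 nL stock; the first replicate is given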
T cruzi repl = T. cruzi replication inhibition. T. cruzi beta-gal in NIH3T3, luminescence, 90 h. AID 1885. inhibition, % (test concentration not listed). 300,000 compounds, 1.4% hits;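 active = mean inhibition across valid replicates above about 55%, limit read from the data; inconclusive = mean below that limit but half or more replicates reach it; inactive = mean below it, under half of replicates reach it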;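 note: signal also drops with host cell toxicity which is not excluded here; 0% = plate median of DMSO wells and 100% = zero luminescence signal; higher percent means less beta-gal luminescence so fewer parasites; stock transfer was 50 nL into about 50 µL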
rRNA inh HTS OD600 = further read-out of rRNA inh HTS, marked with its call; OD600 change, %; measured here: OD600 growth;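 optical density of the mix in the first replicate; 0 = DMSO median and -100 = no signal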
rRNA inh HTS RFP = also measured in rRNA inh HTS; calls as there; RFP signal change, %; measured here: RFP humanized mutant strains;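 first replicate; 0 = DMSO median and -100 = no signal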
The depositor's hits bear a star; i = inactive; u = inconclusive; x = not tested or not shown. These rows are one share of the data; the hit share may differ from the screen's.

SMILES | Calb FLC | rRNA inh HTS | rRNA inh HTS OD600 | rRNA inh HTS RFP | RanGTP-Imp inh | ALR inh | MLL AF4-AF9 inh | FGF22 binding | Beta cell apopt | T cruzi repl
CCOC(=O)c1cnc(-c2ccccc2)nc1-c1ccccc1 | 0 | -5 | -16 | -2.8 | -2.3 | -1 | -15 | i | -5 | 7
O=C(C1CCC1)N1CCc2cc(S(=O)(=O)N3CCN(c4ccccn4)CC3)ccc21 | 5 | x | x | x | 2.7 | -1 | x | x | 10 | -6
Cc1csc2ncc(C(=O)N(Cc3ccccc3)c3ccccn3)c(=O)n12 | 1 | 3 | 8 | -8.4 | -0.8 | -4 | -6.9 | i | 0 | 15
CCC(=O)Oc1ccc2c(=O)c(-c3ccc4ccccc4n3)c(CC)oc2c1C | 4 | x | x | x | 2.6 | x | x | x | -4 | -7
N#Cc1cc(-c2ccccc2)cnc1Sc1ccc(Cl)cc1 | 2 | x | x | x | 5.2 | 38 | x | x | 7 | 32
O=C(NCCc1ccccc1)c1ccccc1NC(=O)C1CC=CCC1C(=O)O (stereo not given) | -2 | 14 | 7 | -2.2 | -0.2 | 22 | 2.0 | i | -10 | -6
COc1ccc2[nH]c(=O)c(CN(Cc3ccco3)C(=O)c3ccccc3)cc2c1 | -12 | x | x | x | -2.2 | -5 | x | x | 0 | 16
CSc1ncccc1C(=O)OCC(=O)N(C)c1c(N)n(Cc2ccccc2)c(=O)[nH]c1=O | 3 | 4 | 8 | 1.3 | 7.1 | -8 | 0.2 | i | -4 | -2
CCC(C)C1C(C#N)=C(N)Oc2n[nH]c(-c3ccccc3)c21 (stereo not given) | 10 | -3 | 8 | 8.5 | 1.3 | -2 | 5.2 | i | x | -14
Cn1c(SCC(=O)N2CCCCC2)nc2c(c1=O)SCC2 | 4 | 5 | -1 | -1.0 | -4.4 | -1 | 0.1 | i | -11 | -12
COc1cc(C(=O)NCC(=O)n2nc(C)cc2C)cc(OC)c1OC | 9 | x | x | x | -0.2 | x | x | x | 0 | -4
CCOc1ccc(N=Cc2c(O)cc(C)oc2=O)cc1 | -4 | 2 | 3 | 0.7 | u | 4 | -6.1 | i | -1 | 5
COC(=O)C1=NN(C(=O)c2ccc(Cl)cc2)C(O)(c2ccccc2)C1 (stereo not given) | 59* | x | x | x | 6.3 | 39 | x | x | -8 | -17
COC(=O)c1ccc(COC(=O)c2ccccc2OC)cc1 | 4 | x | x | x | 3.5 | -1 | x | x | -3 | 21
COc1cccc(C(=O)O/N=C(\N)c2ccncc2)c1 | -18 | -8 | 0 | -9.2 | x | 2 | -7.0 | i | -2 | -14
O=S(=O)(Nc1cccc(-c2nnco2)c1)c1ccc(Cl)cc1 | 15 | -12 | -12 | 1.4 | -2.6 | -1 | -2.2 | i | 0 | -19
CCCN(Cc1cc2cccc(C)c2[nH]c1=O)C(=O)c1cccc(OC)c1 | 1 | x | x | x | -3.4 | 0 | x | x | 7 | 23
Cc1ccc(C)c(S(=O)(=O)N2CCCOC2CNC(=O)C(=O)NCCc2ccco2)c1 (stereo not given) | -9 | 3 | 0 | 1.7 | 1.7 | -6 | 4.8 | i | -4 | -6
CS(=O)(=O)N1CCN(C(=O)NC23CC4CC(CC(C4)C2)C3)CC1 | -9 | x | x | x | 3.5 | -10 | x | x | -8 | -17
CN(CC(=O)NCCc1ccc(S(N)(=O)=O)cc1)CC(=O)Nc1ccc(Cl)cc1 | x | -5 | -1 | 0.9 | x | -9 | -2.6 | i | -8 | x
CCOc1ccc2nc(Cl)c(CN(C(C)=O)C3CCCCC3)cc2c1 | 18 | 2 | -2 | -0.5 | 1.3 | -6 | -0.6 | i | -2 | 22
COc1cccc(-c2nnc(SCCOc3ccc4c(C)cc(=O)oc4c3)o2)c1 | -5 | x | x | x | 1.9 | -4 | x | x | 8 | 4
Cc1ccc(Cn2nnc3c(=O)[nH]c(C4CCN(S(=O)(=O)c5ccc(S(=O)(=O)NC6CC6)cc5)CC4)nc32)cc1 | -3 | -2 | -6 | 5.8 | 0.7 | 2 | -6.7 | i | 4 | 6
CCn1nc(C)c(Oc2ccccc2O)c1C | 2 | x | x | x | -1.2 | 39 | x | x | x | 2
Nc1nc(SCC(=O)Nc2ccccc2Oc2ccccc2)n[nH]1 | -6 | x | x | x | 5.0 | -14 | x | x | -3 | -1
Cc1ccc2c(c1)cc(C(=O)N1CCN(c3ccccn3)CC1)n2C | 7 | -2 | -8 | -1.3 | -3.1 | x | 0.3 | i | -3 | -7
COCCCNC(=O)C1CCCN(S(C)(=O)=O)C1 (stereo not given) | 11 | 7 | 14 | -5.5 | 6.6 | -4 | 1.1 | i | -10 | -4
O=C(Cc1ccccc1)NC(=S)Nc1ccc(OC(F)F)cc1 | -8 | -7 | 1 | -2.9 | -1.3 | x | 0.6 | i | -4 | -2
CCOC(=O)C1(Cc2ccc(OC)cc2)CCN(C(=O)c2csc(C)n2)CC1 | -14 | 4 | 3 | -0.7 | -2.9 | -3 | -3.2 | i | -2 | -11
CCOc1ccc(OCC)c(NC(=O)C2CCCN(S(=O)(=O)c3c(C)noc3C)C2)c1 (stereo not given) | -8 | x | x | x | 3.8 | -6 | x | x | 7 | -14
O=C(O)COc1ccccc1/C=C1\SC(=Nc2ccc(F)cc2)N(c2ccc(F)cc2)C1=O | 6 | 7 | -4 | 6.7 | -4.3 | 6 | 4.4 | i | -7 | -3
CCN(CC(=O)Nc1ccc(Cl)c(S(=O)(=O)N(C)C)c1)CC(=O)NC(C)C | 0 | 8 | 9 | 1.1 | -2.7 | 2 | -1.3 | i | -3 | -2
COCCNC(=O)CSc1ncnc2sccc12 | -6 | x | x | x | 3.8 | -12 | x | x | -7 | 2
CCc1cc(SC#N)cc(C)c1N | -5 | -11 | -5 | 3.5 | -11 | x | 4.3 | i | -6 | -19
O=C(O)c1cccc(S(=O)(=O)N2CC=C(c3ccccc3)CC2)c1 | x | x | x | x | x | 3 | -2.0 | i | -5 | x
CCN(c1ccccc1)S(=O)(=O)c1cccc(C(=O)NCc2ccccn2)c1 | -1 | -20 | -29 | 1.3 | -0.2 | x | 13 | x | x | 0
CCOc1ccccc1C(=O)NCC(=O)NC(C)c1ccc(-n2ccnc2)cc1 (stereo not given) | 7 | 1 | -6 | 1.7 | 2.0 | 7 | -0.1 | i | 1 | -2
O=[N+]([O-])c1ccc(N/N=C2/CCCCC2c2ccccn2)c([N+](=O)[O-])c1 (stereo not given) | -17 | 1 | -2 | 1.0 | 0.6 | 4 | 13 | i | 1 | -3
CCOC(=O)c1sc(N/N=C/c2ccc(N(C)C)cc2)nc1C | 8 | 6 | 18 | 10 | 4.8 | -3 | -10 | i | -15 | 18
CCN(CC(=O)Nc1ccccc1OC)C(=O)c1cc(S(=O)(=O)N2CCCCCC2)ccc1OC | 1 | -14 | -6 | 8.9 | 2.2 | 0 | -3.5 | i | 3 | 6
Cc1ccc(C)c(NC(=O)CN(C)C(=O)C2=NNC(=O)CC2)c1 | x | 8 | 12 | 0.5 | x | 0 | 2.2 | i | -5 | x
c1ccc2[nH]c(-c3ccncc3)nc2c1 | 16 | -9 | -4 | -0.7 | -1.2 | -13 | -1.2 | i | 0 | 1
COc1ccc(C2/C(=C(\O)c3ccc4c(c3)OCCO4)C(=O)C(=O)N2CCCn2ccnc2)cc1 (stereo not given) | -10 | -4 | 0 | -1.3 | 3.5 | -8 | 3.6 | i | -1 | -7
CCCCN1C(=O)C(O)(CC(=O)c2c(C)coc2C)c2ccccc21 (stereo not given) | 1 | -5 | -1 | -2.4 | 5.4 | -9 | -2.2 | i | -2 | 1
CSc1nc2ccc(Br)cc2[nH]1 | 0 | -8 | 1 | -1.5 | 0.2 | -12 | 0.0 | i | 6 | -1
O=C(O)c1cccc(-c2ccc3c(c2)OCO3)c1 | 11 | -2 | 2 | -2.5 | -2.0 | 3 | 1.2 | i | -2 | -3
Cc1ccc(-n2nc3c(=O)n(CC(=O)NCc4ccc(C)o4)nc(C)c3c2C)cc1 | -3 | 5 | 18 | -1.6 | 1.7 | -2 | 0.1 | i | 0 | -3
CCn1cc(C(=O)NCC2CCCO2)c(=O)c2cc(S(=O)(=O)N3CCCCC3)ccc21 (stereo not given) | 52 | x | x | x | 7.1 | x | x | x | 4 | 6
Cc1ccc(CC(=O)Nc2nc3c(s2)CCCC3)cc1 | -26 | x | x | x | 0.3 | 2 | x | x | 2 | -2
COc1ccccc1NC(=O)CCSc1nnc(-c2ccc(O)cc2)o1 | -18 | -24 | -27 | -0.4 | -3.5 | 6 | -0.5 | i | x | -10
CCCCSc1nnc(-c2ccc(NC(=O)CC)cc2)n1C | -14 | x | x | x | -1.5 | -7 | x | x | 5 | 8
Cc1ccc(C(=O)Nc2ccc(OCc3ccccc3)cc2)s1 | -8 | 2 | 5 | 2.2 | 2.1 | -1 | 2.0 | i | 4 | 11
CCOc1cc(C(=S)N2CCCC2)ccc1OC(=O)Cc1ccc(F)cc1 | u | 4 | -11 | 2.1 | 6.6 | -29 | -9.8 | i | 2 | -22
CCOC(=O)/C(=N\Nc1ccccc1)S(=O)(=O)c1ccccc1 | -3 | 9 | 4 | -7.3 | -3.2 | -3 | 3.4 | i | -1 | -1
CCC(C)(C)NC(=O)C(c1ccccc1)N(C(=O)c1csnn1)C1CC1 (stereo not given) | u | x | x | x | -0.7 | x | x | x | -5 | 1
Cc1cnc(NC(=O)CC(C)c2ccccc2)s1 (stereo not given) | -2 | 0 | -5 | 1.3 | -1.8 | -3 | -1.5 | i | 15 | -48
COc1ccc([C@@H]2[C@@H]3C(=O)N(C(C)(C)C)C(=O)[C@@H]3[C@]3(C)C(=O)N(c4ccc(C(F)(F)F)cc4)C(=O)N23)cc1 | 22 | 3 | -9 | -2.9 | -1.2 | -2 | 0.5 | i | -3 | 1
Nc1c(C(=O)Nc2nccs2)sc2nc(-c3cccs3)cc(C(F)(F)F)c12 | 27 | x | x | x | -27 | -14 | x | x | -8 | -16
CCC(=O)Nc1ccc(NC(=S)NC(=O)/C=C/c2ccco2)cc1 | 9 | -2 | -3 | 5.4 | 0.0 | 7 | 2.5 | i | -13 | -2
Cc1ccc(NC(NC(=O)c2cccs2)C(Cl)(Cl)Cl)cc1 (stereo not given) | -5 | x | x | x | 4.5 | 98* | x | x | -5 | -7
COc1ccc(-c2nc(CS(=O)(=O)CC(=O)NCc3ccccc3OC)c(C)o2)cc1 | -7 | 2 | 10 | -1.4 | 3.4 | 99* | -1.6 | i | -4 | 7

Entries of single compounds as entered above. Order of values: Calb FLC | rRNA inh HTS | rRNA inh HTS OD600 | rRNA inh HTS RFP | RanGTP-Imp inh | ALR inh | MLL AF4-AF9 inh | FGF22 binding | Beta cell apopt | T cruzi repl
`CCn1cc(C(=O)NCC2CCCO2)c(=O)c2cc(S(=O)(=O)N3CCCCC3)ccc21` (stereo not given) is entered as 52 | x | x | x | 7.1 | x | x | x | 4 | 6
`CCOc1cc(C(=S)N2CCCC2)ccc1OC(=O)Cc1ccc(F)cc1` is entered as u | 4 | -11 | 2.1 | 6.6 | -29 | -9.8 | i | 2 | -22
